# Bead autofluor = counter-screen for toxin protease inhibitors: compound fluorescence; AID 624483; compound autofluorescence counterscreen, microsphere flow cytometry; hits give high values; 3.1% of 360,000 active; fluorescence intensity (test concentration not listed);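 active means at least 3 SD above the mean of all compounds, about 16000 in these data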;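 further: 100 nL of 1 mM stock went into each well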
# * = called active by the depositor.
SMILES,Bead autofluor
CCc1nc2ccc(C(=O)NCc3ccc4c(c3)OCO4)cn2c1N(CC)CCN(C)C,3977
Cc1ccc(C(O)c2ncc(-c3cccc(C(F)(F)F)c3)[nH]2)c(C)c1 (stereo unspecified),4164
COC(=O)c1c(NC(=O)c2ccccc2C(=O)O)sc2c1CCCC2,3379
O=C(NC(c1ccc(Cl)cc1)c1ccsc1)C1CCN(Cc2cccc(C(F)(F)F)c2)CC1 (stereo unspecified),2894
Cc1c(C(=O)NCc2ccc(F)cc2)sc(=O)n1Cc1ccccc1F,5764
Fc1cccc(Cc2c(-c3ccccc3)nc3ccc(Cl)cn23)c1,9579
C=CCN1[C@@H](Cc2ccccc2)COc2cc(N3CCSCC3)ccc2S1(=O)=O,5127
COc1ccc(NC2CCCN(C(=O)COc3ccc(C(C)=O)cc3)C2)cc1 (stereo unspecified),2827
C[C@H](O)[C@@H]1CN2CCc3c([nH]c4ccccc34)[C@@H]2C[C@@H]1N(C)C(=O)NC1CCCCC1,4016
Cc1ccc(-c2ccc(CN3C(CC(C)C)C(=O)N(Cc4cn(CC5CCCCC5)nn4)CCS3(=O)=O)cc2)cc1 (stereo unspecified),3453
COc1cccc(-c2nc(Cl)nc3cc(Cl)ccc23)c1,5888
CC1(C(=O)NCc2ccccc2)CCC(=O)N1CCOc1ccccc1 (stereo unspecified),3913
CC(=O)N1C[C@H]2CON(C)[C@H]2C[C@H]1c1ccc(-c2ccccc2)cc1,3635
O=C(O)c1ccc(C(S(=O)(=O)c2ccccc2)S(=O)(=O)c2ccccc2)cc1,3409
CN(C)c1ccc(-c2cccc3nccn23)cc1,2841
O=C1NCN(c2ccccc2)C12CCN(C(c1ccccc1)c1nnnn1Cc1ccccc1)CC2 (stereo unspecified),5899
CCC(CC)C(=O)N(C)c1c(C)nc2c(OCc3ccccc3OC)cccn12,4101
CCCCN1C[C@H](Cc2ccccc2)[C@@H](CC(=O)Nc2ccc(OC)cc2)C1=O,3469
CCCc1ccc(C(O)c2ncc(-c3ccc(C)cc3)[nH]2)cc1 (stereo unspecified),2937
Cc1nc2c(OCc3ccc(F)c(F)c3)cccn2c1N(C)C(=O)CCC1CCCC1,4143
O=C(Nc1ccc([N+](=O)[O-])cc1)OC1CCS(=O)(=O)C1 (stereo unspecified),5412
CCOC(=O)C1(C)CCN1C(=O)c1ccoc1 (stereo unspecified),3879
CC(=O)Nc1cccc(-c2ccnc3c2CC(C)(C(=O)NCc2ccc(N(C)C)cc2)O3)c1 (stereo unspecified),2923
CCOC(=O)[C@]12Cc3c(cc(OC)c(OC)c3OC)[C@H]1N(C(C)C)C(=O)c1cc(OC)ccc12,4956
CC(=O)Nc1ccc(C(=O)N2CCCCC2c2cc(C(=O)NCc3ccc(F)cc3)no2)cc1 (stereo unspecified),3946
COc1cccc(NC(=O)N(C)C[C@H]2Oc3cc(Br)ccc3S(=O)(=O)N([C@H](C)CO)C[C@H]2C)c1,3638
C[C@H](CO)N1C[C@H](C)[C@@H](CN(C)C(=O)OCc2ccccc2)OCc2cn(nn2)CCCC1=O,3716
COCCNc1nc(NCc2ccc(C(C)C)cc2)c2sccc2n1,2907
Cc1ccc2nc(C(C)(C)C)c(Cc3ccccc3C(F)(F)F)n2c1,4819
CC1(C(=O)NC2CCN(Cc3ccccc3)CC2)CCN1Cc1ccc2ccccc2c1 (stereo unspecified),3163
COc1cccc(-c2cnc3c(NC(C)=O)cc(-c4cccc(NC(C)=O)c4)cn23)c1,3611
CC1=C(C(=O)N(C(C)C)C(C)C)CC(CC(=O)NCCCN(C)C)C(=O)N1Cc1ccc(C(C)(C)C)cc1 (stereo unspecified),6238
Cn1nc(C(C)(C)C)cc1N1C(=O)CCC1(C)C(=O)NC1CCCCC1 (stereo unspecified),5493
C[C@@H]1CN([C@H](C)CO)C(=O)CCCn2nncc2CO[C@H]1CN(C)C(=O)Oc1ccc2ccccc2c1,3409
Cc1cc(C)n2c(NC3CCCCC3)c(-c3ccc(F)cc3)nc2n1,8281
O=C(NCc1ccc(F)c(F)c1)c1cccc2c(-c3cccnc3)coc12,3418
CCN(CC(=O)Nc1ccccc1C(F)(F)F)C(=O)c1ccc(NC(=O)c2cccs2)cc1,3534
O=C(NCc1ccccc1Cl)C1CCN(C(=O)c2ccc(F)cc2)CC1,3786
CCCCn1nnnc1C(c1cccs1)N1CCC2(CC1)C(=O)NCN2c1ccccc1 (stereo unspecified),5907
COc1ccc(-c2ccc(CN3C(C(C)C)C(=O)N(Cc4cn(Cc5ccco5)nn4)CCS3(=O)=O)cc2)cc1OC (stereo unspecified),3372
C#CCOCC1CN(c2ccccc2)C(=O)O1 (stereo unspecified),2857
CC(C)CC1OC(C)CC2=C1C(=O)OC(C)(C)O2 (stereo unspecified),6299
Cc1cc(S(=O)(=O)Nc2ccc(C(=O)NC3CC3)cc2)ccc1F,3683
CC(C)C1Cc2[nH]c(=S)[nH]c(=O)c2C(c2ccc(Cl)cc2)O1 (stereo unspecified),5767
Cn1nc(C(C)(C)C)cc1NC(=O)C1(C)CCN1C(=O)c1ccccc1CCc1ccccc1 (stereo unspecified),3564
O=C(C1CCCCC1)N1C[C@H](O)[C@@H](n2cc(C3CC3)nn2)C[C@@H]1c1ccccc1,2937
CC1=C(C(=O)N2CCOCC2)CC(CC(=O)NCC2CCCCC2)C(=O)N1CCCN1CCCC1=O (stereo unspecified),3626
Cc1cc(F)ccc1-c1cc(C(=O)Nc2ccccc2)[nH]n1,3644

# Taken from the entries so far, 2 compounds:
SMILES,Bead autofluor
CCN(CC(=O)Nc1ccccc1C(F)(F)F)C(=O)c1ccc(NC(=O)c2cccs2)cc1,3534
O=C(NCc1ccccc1Cl)C1CCN(C(=O)c2ccc(F)cc2)CC1,3786

# Next section
SMILES,Bead autofluor
O=C(NCCc1ccc(O)c(Br)c1)c1ccc(Br)o1,4501
COc1ccc(C(=O)C2CCCN(CC3CCCCC3)C2)cc1OC (stereo unspecified),3298
CCOc1ccc(CCN2C(=O)C(=O)N([C@@H](CC(C)C)CN3CCC[C@H]3CN3C(=O)C(=O)NC[C@@H]3CC(C)C)C[C@@H]2Cc2ccc(O)cc2)cc1,4454
CSc1ccc(C(O)c2ncc(-c3cccc(OCc4ccccc4)c3)[nH]2)cc1 (stereo unspecified),3758
O=C(Nc1cccc(S(=O)(=O)N2CCCC2)c1)[C@H]1C[C@H](O)[C@@H](CO)O1,3552
O=C1NC(O)CCN1C1CC(O)C(CO)O1 (stereo unspecified),6573
COc1ccc(-c2nc3ccc(Cl)cn3c2Cc2ccccc2)cc1OC,6253
COc1ccc(S(=O)(=O)Nc2ccc3c(c2)C(=O)N([C@H](C)CO)C[C@H](C)[C@@H](CN(C)S(=O)(=O)c2cn(C)cn2)OCCCC[C@H](C)O3)cc1,3299
COc1ccc(-n2ccnc2SCC(=O)c2c(N)n(C3CC3)c(=O)[nH]c2=O)cc1,3386
Cc1cc(C(=O)N2CCC2(C)C(=O)Nc2cccc3c2CCCC3)nn1C (stereo unspecified),3601
CCCCn1c(SCCN2CCCCC2)nc2c1c(=O)n(C)c(=O)n2C,3042
COC(=O)c1ccc2nc(-c3cccc(Cl)c3)c(Cc3cccc(F)c3)n2c1,6341
CCc1ccc2c(c1)NC(=O)C2(C)Cc1ccc(C(F)(F)F)o1 (stereo unspecified),4053
COCOc1ccc(-c2ncc(OC)nc2NC(=O)c2ccsc2)cc1,3175
CCOP(=O)(OCC)C(Cc1ccc(OC)c(OC)c1)N=C(c1ccccc1)c1ccccc1 (stereo unspecified),5246
OCc1ccccc1Cn1ccnc1,3738
CCCCC(=O)NC(c1ccc(OC)cc1)c1ccc2cccnc2c1O (stereo unspecified),3598
COc1ccc(OC)c(NC(=O)C2(C)CCN2CCOc2ccccc2)c1 (stereo unspecified),3568
Cc1ccc2c(c1)C=CC(C#N)N2C(=O)Oc1ccccc1 (stereo unspecified),2830
CN1OC[C@@H]2CN(Cc3ccccc3)[C@H](c3cccc(-c4ccccc4)c3)C[C@@H]21,3730
C=CCNc1ncnc2c1ncn2[C@H]1CN(Cc2ccccc2)C[C@@H](COC(C)=O)O1,3071
CCC(=O)N(C)C[C@H]1Oc2ncc(C#Cc3cccnc3)cc2C(=O)N([C@@H](C)CO)C[C@@H]1C,3636
CC(=O)c1cccc(NC(=O)C2CCCN2S(=O)(=O)c2ccccc2C(F)(F)F)c1 (stereo unspecified),3191
CCCCCCN1CCN(C2CN(Cc3cn(Cc4ccc(C)cc4)nn3)S(=O)(=O)C2)CC1 (stereo unspecified),5718
COC(=O)[C@]12CCCCC=C1N(CCC1=CCCCC1)C(=O)[C@H](CC(=O)N1CCC(c3ccccc3)CC1)C2,4887
CCc1nc2c(OCc3ccc(Cl)cc3Cl)cccn2c1N(C)C(=O)C(C)C,4460
COc1ccc(Cl)c(-c2cc(C(=O)NCc3ccco3)[nH]n2)c1,2772
CCOC1=C2CN(S(=O)(=O)c3ccc(C)cc3)[C@H](c3ccccc3)C[C@@H]2N(S(=O)(=O)c2ccccc2)[C@H](c2ccccc2)C1,5699
CCc1ccc(/C=C2/SC(=S)N(CCCC(=O)Nc3cccc(C(=O)O)c3)C2=O)cc1,3796
CCCCN(C=O)c1c(CC)nc2ccc(C(=O)N3CCN(S(=O)(=O)CC)CC3)cn12,3870
COc1cccc(CNc2nc(NCc3ccccc3OC)nc3ccsc23)c1,2989
CCCNC(=O)C1(C)CCCN(C(=O)/C=C/c2ccccc2)C1 (stereo unspecified),2860
COc1cc(OC)nc(Nc2nc(C(N)Cc3ccccc3)cs2)n1 (stereo unspecified),3117
COc1ccc(-c2ccc(C(=O)Nc3cccc(C(C)=O)c3)c3occc23)c(C)c1,4033
OC(c1ccccc1)(c1ccccc1)C1CCN(CCCOc2ccc3c(c2)CCCC3)CC1,6248
COc1cc(CNC(=O)c2cc(-c3ccc(F)cc3C)n[nH]2)cc(OC)c1,2985

# Eleven entries out of the list, arranged by count of non-hydrogen atoms, lowest first.
SMILES,Bead autofluor
COc1ccc(Cl)c(-c2cc(C(=O)NCc3ccco3)[nH]n2)c1,2772
COc1cc(OC)nc(Nc2nc(C(N)Cc3ccccc3)cs2)n1 (stereo unspecified),3117
COc1cc(CNC(=O)c2cc(-c3ccc(F)cc3C)n[nH]2)cc(OC)c1,2985
CCc1nc2c(OCc3ccc(Cl)cc3Cl)cccn2c1N(C)C(=O)C(C)C,4460
COc1cccc(CNc2nc(NCc3ccccc3OC)nc3ccsc23)c1,2989
COc1ccc(-c2ccc(C(=O)Nc3cccc(C(C)=O)c3)c3occc23)c(C)c1,4033
CCCCN(C=O)c1c(CC)nc2ccc(C(=O)N3CCN(S(=O)(=O)CC)CC3)cn12,3870
CCC(=O)N(C)C[C@H]1Oc2ncc(C#Cc3cccnc3)cc2C(=O)N([C@@H](C)CO)C[C@@H]1C,3636
OC(c1ccccc1)(c1ccccc1)C1CCN(CCCOc2ccc3c(c2)CCCC3)CC1,6248
COC(=O)[C@]12CCCCC=C1N(CCC1=CCCCC1)C(=O)[C@H](CC(=O)N1CCC(c3ccccc3)CC1)C2,4887
CCOC1=C2CN(S(=O)(=O)c3ccc(C)cc3)[C@H](c3ccccc3)C[C@@H]2N(S(=O)(=O)c2ccccc2)[C@H](c2ccccc2)C1,5699

# Continuation:
SMILES,Bead autofluor
Cc1cccc(CN2CCN(C3CN(Cc4ccc([N+](=O)[O-])cc4)S(=O)(=O)C3)CC2)c1 (stereo unspecified),5449
O=C(O)c1ccc(NC(=O)C2CCN(S(=O)(=O)c3ccc4c(c3)OCCO4)CC2)cc1,2840
COCCCN1C(=O)C(CC(=O)NCc2ccco2)CC(C(=O)N(C)C)=C1C (stereo unspecified),2820
CSCCC(c1nnnn1Cc1ccccc1)N1CCC2(CC1)C(=O)NCN2c1ccccc1 (stereo unspecified),6297
COc1ccc(S(=O)(=O)N2CCCCC2c2cc(C(=O)N3CCOCC3)no2)cc1 (stereo unspecified),2896
CC(=O)C1(O)CCC2C3CC(C)C4=CC(=O)CCC4(C)C3CCC21C (stereo unspecified),6037
C[C@@H]1CN([C@@H](C)CO)C(=O)CCCn2nncc2CO[C@@H]1CN(C)S(=O)(=O)c1cccc(F)c1,3643
COc1ccc(CN2C(=O)C(CC(=O)NCc3cccc4ccccc34)CC(C(=O)N(C)C)=C2C)cc1 (stereo unspecified),6476
C[C@@H]1CN([C@H](C)CO)C(=O)c2cc(NC(=O)Nc3ccc(F)cc3)ccc2O[C@@H](C)CCCCO[C@H]1CN(C)S(=O)(=O)c1cccs1,3729
CC(Sc1nc(-c2ccccc2)c(-c2ccccc2)[nH]1)C(=O)NCC1CCCO1 (stereo unspecified),3699
Cc1ccc(C(=O)NC(C)C(c2cccs2)N2CCOCC2)cc1C (stereo unspecified),2970
COc1cccc(C(NC(C)=O)c2nc(-c3cnc4ccccc4c3)cs2)c1 (stereo unspecified),3774
COc1ccccc1-c1ccc2c(c1)C(C)(Cc1cccc(F)c1)C(=O)N2 (stereo unspecified),4206
CN(C)CCN(C)C1CN(Cc2ccc([N+](=O)[O-])cc2)S(=O)(=O)C1 (stereo unspecified),3817
CC1(C(=O)NCC(F)(F)F)CCN1C(=O)Cc1ccc(-c2ccccc2)cc1 (stereo unspecified),3318
O=C(NC1CCOC1=O)OCc1ccccc1 (stereo unspecified),2929
COc1ccc2cc3[n+](cc2c1O)CCc1cc2c(cc1-3)OCO2,4478
CC1(C(=O)Nc2ccccc2)Cc2c(-c3cccc(C(F)(F)F)c3)ccnc2O1 (stereo unspecified),2715
C[C@@H]1CN([C@H](C)CO)C(=O)CCCn2nncc2CO[C@@H]1CN(C)C(=O)Nc1ccc(N2CCN(C)CC2)cc1,3929
COc1ccc(C(C)=NOC(=O)c2c(-c3ccccc3Cl)noc2C)cc1CN1CCOCC1,3893
CCOC(=O)N1CCN(C(=O)C[C@@H]2C[C@@]3(C(=O)OCC)CCCC=C3N(Cc3ccc(Cl)cc3Cl)C2=O)CC1,5105
CC1(C(=O)NCCc2ccccc2)Cc2c(-c3ccccc3)ccnc2O1 (stereo unspecified),3833

# Screens as filed in PubChem.

# Not all compounds are listed, so the mix of outcomes need not match the whole.
